Screening data: PubChem, Broad Institute
rRNA inh HTS = reduced GFP signal of wild-type E. coli, primary screen, bacterial rRNA inhibitor project, GFP/RFP fluorescence, OD600, single point. E. coli WT GFP vs humanized-ribosome RFP mutants, 24 h; hits give low values; DMSO median 0, no signal -100. GFP signal change (wild-type ribosome), % (concentration not given with the values). 350,000 compounds, 1.6% hits. AID 720706, 2013;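 active = significant combined selectivity score with lowered wild-type GFP, culture density cut under 30%, mutant RFP and density less affected; inactive = any of these conditions unmet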; also: one replicate is shown; some compounds called inactive have numbers as strong as hits
rRNA inh HTS OD600 = second read-out of rRNA inh HTS, no call of its own (marks repeat the call); OD600 change, %; measured here: OD600 growth;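 optical density of the mix in the first replicate; 0 = DMSO median and -100 = no signal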
rRNA inh HTS RFP = recorded beside rRNA inh HTS, whose call it bears; RFP signal change, %; measured here: RFP humanized mutant strains;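 first replicate; 0 = DMSO median and -100 = no signal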
Starred values were filed as active, the others as inactive. These rows are one share of the data; rates above refer to the full screens.

SMILES | rRNA inh HTS | rRNA inh HTS OD600 | rRNA inh HTS RFP
CNC[C@@H]1Oc2ccc(NC(=O)CCC(F)(F)F)cc2C(=O)N([C@H](C)CO)C[C@@H]1C | 2.4 | -2.3 | -1.2
OC[C@@H]1Nc2ccc(C#Cc3ccc(F)cc3)cc2[C@H]2[C@@H]1CCN2Cc1nccs1 | -3.9 | -6.4 | 9.3
COc1ccc(S(=O)(=O)N2CC[C@@H]3[C@@H](CO)Nc4ccc(-c5ccccc5F)cc4[C@@H]32)cc1 | -4.2 | -14.2 | -1.3
CCCNC(=O)N1CC(=O)N2[C@H](C1)[C@@H](c1ccc(C#Cc3ccccc3)cc1)[C@@H]2CO | -41.7 | -70.4 | -0.1
C[C@@H]1CCCCO[C@H](CN(C)S(=O)(=O)c2ccc(F)cc2)[C@@H](C)CN([C@H](C)CO)C(=O)c2cc(NS(=O)(=O)c3ccc(F)cc3)ccc2O1 | 1.4 | 8.9 | -2.9
COc1ccc(N2C(=O)c3ccccc3NC(=O)C2C(=O)Nc2ccc(N3CCOCC3)cc2)cc1 (configuration not stated) | -6.6 | -0.1 | 0.2
CC(C)NC(=O)N(C)C[C@@H]1Oc2ccc(N(C)C)cc2CC(=O)N(C)C[C@@H]1C | -0.4 | 0.5 | 0.0
CC(C)NC(=O)N(C)C[C@H]1OCCCC[C@H](C)Oc2ccc(NC(=O)Nc3ccccc3)cc2C(=O)N([C@@H](C)CO)C[C@H]1C | 0.8 | -7.5 | -1.0
COCCN1C(=O)CSCC1(C)C(=O)Nc1ccc2c(c1)OCCO2 (configuration not stated) | -0.6 | 0.5 | 6.1
COc1ccc(C[C@@H]2CCn3cc(nn3)COCCCNC2=O)cc1 | -0.3 | -3.8 | 1.3
C[C@@H]1CN(C)C(=O)c2cc(N(C)C)ccc2O[C@H]1CN(C)C | 1.0 | -0.4 | -1.3
CO[C@@H]1CN(C)C(=O)c2ccc(NS(=O)(=O)c3ccc(C)cc3)cc2OC[C@H](C)N(C(=O)NC(C)C)C[C@@H]1C | -2.8 | -3.7 | -0.4

Next section; the last two above are carried over.
SMILES | rRNA inh HTS | rRNA inh HTS OD600 | rRNA inh HTS RFP
C[C@@H]1CN(C)C(=O)c2cc(N(C)C)ccc2O[C@H]1CN(C)C | 1.0 | -0.4 | -1.3
CO[C@@H]1CN(C)C(=O)c2ccc(NS(=O)(=O)c3ccc(C)cc3)cc2OC[C@H](C)N(C(=O)NC(C)C)C[C@@H]1C | -2.8 | -3.7 | -0.4
C[C@@H]1CN([C@H](C)CO)C(=O)Cc2cc(NC(=O)Cc3cn(C)c4ccccc34)ccc2O[C@@H]1CN(C)Cc1ccc(Oc2ccccc2)cc1 | 4.7 | 6.7 | 1.6
COc1ccc(CN(C)C[C@H]2OCCCC[C@@H](C)Oc3ccc(NS(=O)(=O)c4ccc(OC)cc4)cc3C(=O)N([C@@H](C)CO)C[C@@H]2C)cc1 | 8.4 | -7.8 | 9.3
CC(C)C[C@H]1COCc2cn(nn2)CC[C@@H](C)C(=O)N1 | 0.8 | 3.5 | -2.2
CN(C)CC(=O)N1[C@@H](CO)[C@H](c2ccccc2)C12CN(C(=O)c1ccc(F)cc1)C2 | 2.2 | 10.8 | 0.6
CC(C)NC(=O)N(C)C[C@@H]1Oc2ccc(NS(C)(=O)=O)cc2C(=O)N(C)C[C@@H]1C | 0.3 | 3.8 | -1.6
O=C(C[C@@H]1CC[C@@H]2[C@H](COC[C@H](O)CN2S(=O)(=O)c2cccc(Cl)c2)O1)N1CCCCC1 | -0.9 | -6.7 | -3.7
CNC[C@H]1OCCCC[C@@H](C)Oc2ccc(NS(=O)(=O)c3c(C)noc3C)cc2C(=O)N([C@H](C)CO)C[C@H]1C | 2.9 | -1.1 | -1.1
C[C@@H]1CN([C@H](C)CO)C(=O)c2cc(C#CC3(O)CCCC3)cnc2O[C@@H]1CN(C)C(=O)C1CC1 | 4.0 | 11.9 | -3.0
COc1ccc(S(=O)(=O)Nc2cccc3c2O[C@H](CN(C)Cc2ccc(C(=O)O)cc2)[C@H](C)CN([C@@H](C)CO)C3=O)cc1 | 9.0 | 16.2 | -0.7
O=C(Cc1ccncc1)Nc1ccc2c(c1)[C@@H]1C[C@H](CC(=O)N3CCOCC3)O[C@@H](CO)[C@@H]1O2 | 1.8 | -3.7 | -3.6
CN1CCCCC(NC(=O)c2ccc(F)cc2)C1=O (configuration not stated) | 4.6 | 9.2 | 2.2
C[C@@H]1CN([C@H](C)CO)C(=O)c2cc(-c3ccc(F)cc3)cnc2O[C@@H]1CN(C)Cc1ccc(F)cc1 | -3.2 | -5.7 | 1.4
CC(C)NC(=O)Nc1ccc2c(c1)C(=O)N([C@H](C)CO)C[C@@H](C)[C@H](CN(C)CC1CC1)OCCCC[C@@H](C)O2 | -1.8 | -3.6 | -3.0
CS(=O)(=O)N1C[C@@H](O)COC[C@@H]2O[C@H](CC(=O)NCc3ccccc3)CC[C@H]21 | 3.2 | 17.0 | -0.6
C[C@@H]1CCCCO[C@@H](CN(C)CC2CCCCC2)[C@@H](C)CN([C@H](C)CO)C(=O)c2cc(NC(=O)NC3CCCCC3)ccc2O1 | 3.7 | 0.2 | 2.5
CN(C)CC(=O)Nc1ccc2c(c1)[C@H]1C[C@H](CC(=O)NCc3ccccc3F)O[C@H](CO)[C@H]1O2 | 0.6 | 4.9 | -1.7
CCCN1C[C@H](C)[C@@H](OC)CN(C)C(=O)c2cc(NC(=O)C3CCC3)ccc2OC[C@H]1C | 1.3 | 6.7 | 0.4
C[C@@H]1CN([C@H](C)CO)C(=O)CCCn2cc(nn2)CO[C@@H]1CN(C)C(=O)NC1CCCC1 | 1.9 | -6.9 | -1.3
O=C1NCCCOCc2cn(nn2)CC[C@H]1Cc1ccc(-c2ccccc2)cc1 | -0.5 | 1.9 | 2.3
C[C@@H]1CN([C@H](C)CO)C(=O)c2cc(NS(=O)(=O)c3cccs3)ccc2O[C@@H](C)CCCCO[C@@H]1CN(C)CC1CC1 | -0.3 | -5.6 | -2.0
C/C=C/c1ccc([C@H]2[C@H](CO)N(C(=O)CC)[C@H]2CN(C)S(C)(=O)=O)cc1 | 0.5 | 2.0 | -3.3
COc1ccccc1CN1CC[C@@H]2[C@@H](CO)Nc3ccc(-c4cccc(F)c4)cc3[C@@H]21 | 11.9 | -12.5 | -0.1
COc1cccc(CNC(=O)[C@H]2CCCN2C(=O)[C@H]2CCCN2C(=O)N2CCOCC2)c1 | 32.5 | 17.0 | 5.0
COc1ccc(-c2ccc3c(c2)[C@@H]2[C@@H](CCN2C(=O)C2CCOCC2)[C@H](CO)N3C)cc1 | -1.9 | -2.2 | -0.3
CCC(=O)NC[C@H]1[C@H](c2ccc(C3=CCCC3)cc2)[C@H](CO)N1C(=O)C1CC1 | -5.3 | -6.3 | 1.0
Cc1noc(C)c1NC(=O)Nc1ccc2c(c1)C(=O)N([C@@H](C)CO)C[C@H](C)[C@H](CN(C)Cc1ccc3c(c1)OCO3)OCCCC[C@@H](C)O2 | 0.9 | 6.4 | -1.0
O=C(C[C@H]1CC[C@H]2[C@@H](COC[C@@H](O)CN2C(=O)c2cc(Cl)cc(Cl)c2)O1)N1CCc2ccccc2C1 | -10.4 | -20.8 | 1.6
N#Cc1cccc(-c2ccc3c(c2)[C@H]2[C@H](CCN2C(=O)c2ccncc2)[C@H](CO)N3)c1 | 7.7 | -10.3 | 1.2
C[C@H](CO)N1C[C@H](C)[C@H](CN(C)S(=O)(=O)c2cccc(F)c2)OCc2cn(nn2)CCCC1=O | -3.2 | -2.6 | 1.7
C[C@@H]1CN([C@H](C)CO)C(=O)Cc2cc(NC(=O)CCCCCC(=O)Nc3ccccc3N)ccc2O[C@@H]1CN(C)C(=O)Nc1ccc(C(F)(F)F)cc1 | -3.3 | -5.3 | -1.7
C[C@@H]1CN([C@@H](C)CO)C(=O)Cc2cc(NC(=O)CCCCCC(=O)Nc3ccccc3N)ccc2O[C@H]1CN(C)S(=O)(=O)c1ccc(Cl)cc1 | -2.7 | -5.8 | -3.2
COCC(=O)N1CC[C@@H]2[C@@H](CO)N(C)c3ccc(-c4cccc(F)c4)cc3[C@@H]21 | -0.6 | -9.5 | 6.5
COCC(=O)Nc1ccc2c(c1)C(=O)N(C)C[C@H](OC)[C@@H](C)CN(C(=O)Cc1cccnc1)[C@H](C)CO2 | 1.9 | 2.0 | 0.4
COc1ccc2c3c(n(C)c2c1)[C@@H](CO)NCC31CN(Cc2ccccc2F)C1 | 3.0 | -6.3 | 3.6
C[C@H](O)[C@@H]1C(=O)N2CCc3c([nH]c4c(-c5ccccc5)cccc34)[C@@H]2C[C@@H]1N(C)C(=O)NC1CCCCC1 | 6.9 | -3.5 | 18.7
Cc1cccc(S(=O)(=O)N2C[C@@H](O)COC[C@H]3O[C@@H](CC(=O)Nc4ccc(-c5ccccc5)cc4)CC[C@@H]32)c1 | 3.2 | 7.6 | 0.8
Cc1noc(C)c1NC(=O)Nc1ccc2c(c1)C(=O)N([C@@H](C)CO)C[C@H](C)[C@H](CN(C)C(=O)Nc1ccccc1)O2 | 8.2 | 3.3 | 0.6
COc1ccc(C[C@@H]2CCn3cc(nn3)COC[C@H](C)NC2=O)cc1 | 4.4 | -1.2 | -0.3
COc1ccc(CN(C)C[C@H]2OCCCC[C@H](C)Oc3ccc(NC(=O)Nc4ccccc4)cc3C(=O)N([C@H](C)CO)C[C@@H]2C)cc1 | 2.9 | -4.6 | 2.9
CCC(=O)Nc1ccc2c(c1)C(=O)N(C)C[C@@H](OC)[C@H](C)CN(CC1CCOCC1)[C@@H](C)CO2 | 0.0 | 0.6 | -0.1
C[C@H](CO)N1C[C@H](C)[C@H](CN(C)C(=O)c2ccncc2)Oc2ncc(-c3ccc(F)cc3)cc2C1=O | 2.8 | -5.2 | -1.2
C[C@@H]1CN([C@@H](C)CO)C(=O)Cc2cc(NC(=O)CCN3CCOCC3)ccc2O[C@H]1CN(C)Cc1ccc2c(c1)OCO2 | 0.9 | -0.1 | -0.4
CCCNC(=O)N1CCC2(CC1)CN(C(=O)c1ccccc1)[C@@H](CO)c1[nH]c3cc(OC)ccc3c12 | 0.8 | 15.8 | -0.4
C[C@@H]1CN([C@@H](C)CO)C(=O)Cc2cc(NC(=O)CCC(F)(F)F)ccc2O[C@H]1CN(C)S(=O)(=O)c1cn(C)cn1 | -0.7 | 1.1 | -1.9
CN1[C@H](C(=O)NC2CCCC2)[C@@H](CO)[C@@H]2Cn3c(ccc(/C=C/c4ccccc4)c3=O)[C@@H]21 | -9.2 | -17.4 | 8.5
CNC[C@H]1OCCCC[C@H](C)Oc2ccc(NC(=O)Nc3ccc(C(F)(F)F)cc3)cc2C(=O)N([C@H](C)CO)C[C@@H]1C | -45.6 | -74.3 | -0.5
CCC(=O)Nc1ccc2c(c1)OC[C@H](C)N(CCc1ccccc1)C[C@H](C)[C@H](OC)CN(C)C2=O | -0.4 | 2.3 | -1.6
CCCNC(=O)N1C[C@@H](O)COC[C@@H]2O[C@H](CC(=O)N[C@@H]3CCN(Cc4ccccc4)C3)CC[C@H]21 | -2.9 | -7.7 | -6.3

4 compounds already listed, ordered by the value under rRNA inh HTS, low to high.
structure	rRNA inh HTS	rRNA inh HTS OD600	rRNA inh HTS RFP
C/C=C/c1ccc([C@H]2[C@H](CO)N(C(=O)CC)[C@H]2CN(C)S(C)(=O)=O)cc1	0.5	2.0	-3.3
CN(C)CC(=O)N1[C@@H](CO)[C@H](c2ccccc2)C12CN(C(=O)c1ccc(F)cc1)C2	2.2	10.8	0.6
Cc1noc(C)c1NC(=O)Nc1ccc2c(c1)C(=O)N([C@@H](C)CO)C[C@H](C)[C@H](CN(C)C(=O)Nc1ccccc1)O2	8.2	3.3	0.6
COc1cccc(CNC(=O)[C@H]2CCCN2C(=O)[C@H]2CCCN2C(=O)N2CCOCC2)c1	32.5	17.0	5.0

(next part)
SMILES | rRNA inh HTS | rRNA inh HTS OD600 | rRNA inh HTS RFP
CCCNC(=O)N1CC(=O)N2[C@@H](CO)[C@H](c3ccc(C#Cc4ccc(F)cc4)cc3)[C@@H]2C1 | -0.2 | -36.3 | 25.7
CC(C)C(=O)Nc1ccc2c(c1)C(=O)N(C)[C@H]1CC[C@H](CC(=O)NCCc3ccccc3)O[C@@H]1CO2 | 5.3 | 21.8 | -0.7
CN1OC[C@@H]2CN[C@H](c3ccc(N4CCCCC4)cc3)C[C@@H]21 | 26.0 | 18.7 | 2.4
CNC(=O)C[C@@H]1CC[C@H]2[C@@H](COc3ccc(NC(=O)Cc4cccs4)cc3C(=O)N2C)O1 | 2.0 | -1.1 | -0.6
CC(C)C#Cc1ccc([C@H]2[C@H]3CN(C(=O)Cc4cccnc4)CC(=O)N3[C@H]2CO)cc1 | 1.3 | 5.8 | -1.5
COc1ccc(NC(=O)Nc2ccc3c(c2)C(=O)N([C@H](C)CO)C[C@@H](C)[C@@H](CN(C)S(=O)(=O)c2ccc(OC)cc2)OCCCC[C@H](C)O3)cc1 | 2.8 | -3.9 | 0.1
CNC[C@H]1Oc2c(NC(=O)Cc3ccccc3)cccc2C(=O)N([C@H](C)CO)C[C@@H]1C | 3.8 | 13.6 | -1.4
COc1cccc(C(C(=O)NC2CCCC2)N2CCN(c3ncccc3C#N)CC2)c1OC (configuration not stated) | -2.3 | 1.4 | 2.9
COc1ccc(CN(C)C[C@@H]2OCCCC[C@@H](C)Oc3ccc(NS(C)(=O)=O)cc3C(=O)N([C@H](C)CO)C[C@H]2C)cc1 | 1.0 | 1.8 | -0.5
CS(=O)(=O)N1C[C@@H]2N[C@H](C1)C2c1ccc(-c2ccc(F)cc2)cc1 (some centres not stated) | -4.2 | -13.0 | 0.6
C[C@H](CO)N1C[C@H](C)[C@@H](CN(C)C(=O)Nc2cccc3ccccc23)Oc2ccc(NS(=O)(=O)c3cccs3)cc2CC1=O | -1.2 | 2.9 | 3.3
Nc1nc2c(ncn2[C@@H]2O[C@H](C(=O)NCC(c3ccccc3)c3ccccc3)[C@@H](O)[C@H]2O)c(=O)[nH]1 | 7.9 | 7.8 | 3.3
